RanGTP-Imp inh – inhibitors of RanGTP-importin-beta interaction, primary screen, biochemical, FRET, CFP-Ran, YFP-importin-beta, homogeneous; cell-free CFP-Ran/YFP-importin-beta FRET ratio; inhibition, % (concentration not given with the values); 300,000 compounds, 1.1% hits; AID 2216, 2009;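 active = most replicates above 15%; inconclusive = exactly half above 15%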;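 note: 0% = DMSO wells and 100% = Ran loaded with GDP instead of GTP; wells of about 40 µL received 100 nL stock; the first replicate is given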
LANA-H2A inh – blockers of LANA interaction with H2A/H2B – biochemical, FP readout, HTS, primary screen | Protein LANA1 (Human herpesvirus 8 type P (isolate GK18)), Q9QR71 | 320,000 compounds, 0.6% hits | inhibition, % (no concentration beside the values) | AID 2629, 2010 | cell-free LANA-H2A/H2B peptide, fluorescence polarization; in the data active = inhibition mostly above about 10%, no sharp cut-off; inactive = mostly below about 6.7%;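 note: stock transfer was 7.5 nL into about 10 µL; 0% = median of vehicle wells and 100% = median of positive control wells; one replicate is shown; the record names a cut of 25% in any replicate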
ALR inh – inhibitors of human ALR sulfhydryl oxidase, primary screen, biochemical, H2O2 detection, HRP-luminol luminescence, single point | purified ALR, DTT oxidation | inhibition, % (test concentration not listed) | FAD-linked sulfhydryl oxidase ALR (Homo sapiens), P55789 | 290,000 compounds, 3.8% hits;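 active = mean and each replicate at 75% or more; inconclusive = only one of the two met; inactive = neither met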;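 note: stock transfer was 7.5 nL into about 7.5 µL; 0% = neutral wells and 100% = wells with inactivated enzyme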
Target sequence (P55789 whole entry, looked up): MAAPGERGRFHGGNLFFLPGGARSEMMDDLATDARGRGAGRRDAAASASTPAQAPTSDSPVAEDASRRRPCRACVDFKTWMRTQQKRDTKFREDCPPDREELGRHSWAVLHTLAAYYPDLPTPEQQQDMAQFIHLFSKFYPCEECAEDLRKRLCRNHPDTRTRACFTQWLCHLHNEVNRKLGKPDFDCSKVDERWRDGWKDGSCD
Calb FLC – C. albicans growth inhibition with fluconazole, primary screen, CaCi-2 strain, Alamar Blue fluorescence. C. albicans CaCi-2 (fluconazole-resistant clinical isolate) + fluconazole, 48 h. AID 1979, 2009. growth inhibition, % (concentration not given with the values). 300,000 compounds, 0.57% hits;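 active = most replicates above 75%; inconclusive = exactly half above 75%; inactive = most below 75%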;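 note: all wells also contain fluconazole at 8 µg/ml as a sub-toxic cotreatment; 0% = median of DMSO wells and 100% = median of geldanamycin control wells; wells of about 8 µL received 7.5 nL stock; the first replicate is given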
HNF4A DNA FP – change in binding of human HNF4A to DNA, primary screen, biochemical, fluorescence polarization, FITC-DNA; activity change, % at 10 µM; 1 h; Hepatocyte nuclear factor 4-alpha (Homo sapiens), P41235; 360,000 compounds, 0.3% hits; in the data active = activity change above about 30%, passing the limit was not always enough;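 note: controls were the assay level and a saturating level of protein; the project sought stronger binding though the title names inhibitors; some compounds called inactive have numbers as strong as hits; positive values seem to mean higher polarization but the record does not say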
Target sequence (P41235 whole entry, looked up): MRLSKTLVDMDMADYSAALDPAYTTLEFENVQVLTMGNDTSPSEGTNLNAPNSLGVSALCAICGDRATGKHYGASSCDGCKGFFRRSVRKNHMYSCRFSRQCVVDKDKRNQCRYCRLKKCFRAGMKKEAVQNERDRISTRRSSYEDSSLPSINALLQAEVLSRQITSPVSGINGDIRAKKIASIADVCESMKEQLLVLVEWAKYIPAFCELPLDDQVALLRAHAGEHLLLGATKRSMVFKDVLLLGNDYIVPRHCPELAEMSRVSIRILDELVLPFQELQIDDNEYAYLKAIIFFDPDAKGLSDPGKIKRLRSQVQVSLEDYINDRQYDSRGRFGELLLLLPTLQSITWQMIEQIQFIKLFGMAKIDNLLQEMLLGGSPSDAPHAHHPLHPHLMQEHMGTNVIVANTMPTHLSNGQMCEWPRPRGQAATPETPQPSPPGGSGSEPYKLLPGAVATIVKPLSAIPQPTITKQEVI
Beta2AR agonist – beta2AR agonists driving receptor internalization, primary screen, cell-based, FAP fluorogen, flow cytometry; 340,000 compounds, 0.43% hits; response, % (test concentration not listed); Beta-2 adrenergic receptor (Homo sapiens), P07550; Am2.2-beta2AR cells; reference of the scale not given here; AID 504454, 2011;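 active = response above a set limit, near 3 SD of response in nonfluorescent compounds, cut at about 42% in these data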;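 note: stock transfer was 100 nL into about 11 µL; a reference agonist was the positive control; negative values mostly stem from fluorescent compounds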
Target sequence (P07550 whole entry, looked up): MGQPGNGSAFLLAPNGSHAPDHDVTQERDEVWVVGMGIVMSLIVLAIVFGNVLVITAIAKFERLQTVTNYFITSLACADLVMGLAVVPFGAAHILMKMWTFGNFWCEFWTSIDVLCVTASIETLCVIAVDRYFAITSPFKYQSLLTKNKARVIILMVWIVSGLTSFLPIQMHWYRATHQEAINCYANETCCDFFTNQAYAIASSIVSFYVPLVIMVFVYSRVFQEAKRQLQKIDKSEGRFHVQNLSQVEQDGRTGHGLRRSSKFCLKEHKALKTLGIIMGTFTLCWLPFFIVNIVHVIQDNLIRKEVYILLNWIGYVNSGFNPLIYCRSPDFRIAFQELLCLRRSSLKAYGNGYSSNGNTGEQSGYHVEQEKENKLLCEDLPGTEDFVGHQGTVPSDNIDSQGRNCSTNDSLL
Vif TR-FRET – inhibitors of Vif binding to APOBEC3G peptide, primary screen, biochemical, TR-FRET, GST-Vif 1-94, biotin-A3G peptide, dose response retest (AID 1117319); inhibition, %; hits with a dose series show IC50 in µM; TR-FRET GST-Vif / biotin-A3G peptide binding; higher % means a stronger effect; test concentration not given here; strong numbers were not always called active; 260,000 compounds, 0.57% hits; Virion infectivity factor (Human immunodeficiency virus type 1 group M subtype B (isolate …;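 active = above the screen mean plus three standard deviations and confirmed in dose response; inconclusive = results disagree or hit not tested in dose response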;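 note: Vif residues 1-94 fused to GST binding biotinylated APOBEC3G peptide 110-148; 0% = full assay without inhibitor and 100% = GST in place of GST-Vif; retest series ran down from 100 µM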
Numbers without * were called inactive; ? = inconclusive; · = not tested or not shown; & = joins results of further samples. Outcome played no part in choosing rows. Share with any hit: about 6.3%.

Values run as follows: RanGTP-Imp inh	LANA-H2A inh	ALR inh	Calb FLC	HNF4A DNA FP	Beta2AR agonist	Vif TR-FRET
O=C(NC1CC1)C1=C[C@@H](C2CCCCC2)C[C@@H](OCc2ccc(CO)cc2)O1
 : -0.1	-0.8	·	-5	-1.4	-15	18%
Cc1ccc(Nc2nc(N3CCOCC3)nc(N3CCOCC3)n2)cc1C
 : -1.6	1.7	1	-1	1.4	16	·
O=C(NCc1cc([N+](=O)[O-])ccc1O)c1cccnc1Sc1ccccc1Cl
 : -2.5	0.9	7	86*	-3.2	10	5%
Cc1cccc(-c2noc(-c3ccoc3C)n2)c1
 : ·	-2.6	0	-19	-4.4	15	-4%
COc1ccc(Cc2nnc(-c3ccccc3)o2)cc1
 : ?	-1.7	-9	-7	2.3	-8	-4%
CCCCCCCc1c(C)nc(N2CCOCC2)[nH]c1=O
 : -2.0	-1.8	-7	-20	4.2	-5	0%
CCN(C(=O)CSc1nc2ccccc2o1)c1c(N)n(Cc2ccccc2)c(=O)[nH]c1=O
 : 1.5	0.1	-13	6	-1.1	-4	-5%
CC(Oc1ccc(/C=N/NC(=O)Cc2cccc3ccccc23)cc1)C(=O)O (centres undefined)
 : 1.8	-3.4	-1	11	4.1	-5	5%
CC1(C)Cc2cccc(OCC(=O)N3CCN(c4ccccc4F)CC3)c2O1
 : -3.0	1.6	-8	3	-3.5	-6	-1%
CC(C)Cn1c(N2CCN(CC(=O)Nc3ccc(Cl)cc3)CC2)nc2ccccc21
 : 0.4	-6.4	-45	15	-1.2	-2	1%
c1ccc(Cc2cc[n+](Cc3ccccc3)cc2)cc1
 : 2.6	-3.3	-17	-14	-14	-3	-3%
CN(CCc1ccccn1)C(=O)Nc1ccc(F)cc1
 : 2.2	0.3	-2	-3	-0.3	-7	-3%
O=C(Cn1cnc2ccc(Br)cc2c1=O)c1cccs1
 : -1.4	-0.4	-1	-10	-0.3	1	-7%
Cc1ccc(S(=O)(=O)c2ccc(Cl)cc2)cc1S(=O)(=O)N1CCOCC1
 : -1.6	0.5	-7	1	3.5	-17	17%
CCCN1CCc2c(sc(NC(=O)c3ccc(S(=O)(=O)N4CCN(C(=O)OCC)CC4)cc3)c2C(N)=O)C1
 : 96*	2.0	-14	1	92*	-190	32%
CCOC(=O)CC1=C(C(=O)OCC)C(c2ccc(OC)cc2OC)C(C#N)=C(N)O1 (centres undefined)
 : -3.1	-8.5	1	-4	-2.8	-6	2%
COc1ccccc1-n1cnnc1SCC(=O)N1CCN(C(=O)c2ccco2)CC1
 : -1.1	-4.9	-7	-6	0.3	-5	-6%
NC(=O)COC(=O)c1ccc(S(=O)(=O)N2CCCCCC2)cc1
 : 0.7	2.5	5	4	2.6	-11	-4%
O=C(Nc1ccc2nc3n(c(=O)c2c1)CCCC3)c1ccc(Cl)nc1
 : -2.0	1.5	1	-2	4.8	-38	2%
O=C(CCn1c2c(c3ccccc31)CCCC2)NNC(=O)c1ccccc1C(=O)O
 : -2.2	1.3	44	2	0.2	3	4%
O=C(COc1ccc(Br)cc1)NNC(=S)NC(=O)c1ccccc1[N+](=O)[O-]
 : 1.0	2.0	·	28	1.7	3	·
CCCCN1C(=O)c2ccc(C(=O)NCCN3C(=O)S/C(=C\c4cccnc4)C3=O)cc2C1=O
 : -2.5	-6.0	-1	-34	1.7	12	1%
Nc1nnc(SCC(=O)Nc2ccccc2)s1
 : 1.2	-0.9	-4	-1	0.5	-2	2%
Cc1ccc(C(=O)N[C@H](C(=O)N2CCN(c3ccccc3F)CC2)C(C)C)cc1
 : -0.8	-0.2	-1	-6	-1.1	-1	·
COc1ccc(/C=C2\SC(=O)N(CCc3nnc(N)s3)C2=O)cc1
 : 0.4	3.7	-5	1	-2.2	4	2%
COC(=O)Cn1c(=O)c2c(nc(Br)n2CC(=O)OC)n(C)c1=O
 : -1.5	1.2	3	-12	3.0	-2	-3%
O=C(CC1OC(=O)c2ccccc21)Nc1ccc(Cl)c(S(=O)(=O)N2CCCCC2)c1 (centres undefined)
 : -0.3	1.2	-4	-4	-0.5	4	0%
CCOC(=O)c1nc(Nc2cc(Cl)ccc2OC)c2ccccc2n1
 : -2.3	7.8	-3	-3	1.1	8	8%
CCCN1CCN(S(=O)(=O)c2ccc(-c3cc(C)no3)s2)CC1
 : -5.8	3.2	0	13	0.6	-11	·
COc1ccc(CCN=C2SCC(=O)N2C)cc1OC
 : 0.2	5.2	-19	5	1.9	-2	-6%
COc1ccccc1CNC(=O)[C@H](C)NC(=O)C1CCN(C(=O)[C@H](CCSC)NC(=O)OC(C)(C)C)CC1
 : -0.1	-2.7	-3	1	-0.4	2	·
CC(C)C1=NOC(C(=O)N2CCC(N3CCC(C(=O)N4CCOCC4)CC3)CC2)C1 (centres undefined)
 : 2.0	0.2	-3	-27	3.0	2	·
CCC(C)c1ccccc1NC(=O)COC(=O)c1ccc2[nH]c3c(c2c1)CCCC3 (centres undefined)
 : 5.4	0.2	-10	-24	-0.1	-9	-6%
NC(=O)NC(=O)C(Nc1ccc2c(c1)CCC2)c1ccccc1 (centres undefined)
 : 0.5	0.2	47	-3	0.0	0	·
COc1ccccc1N1CCN(C(=S)Nc2ccc(S(=O)(=O)N3CCOCC3)cc2)CC1
 : -3.4	2.2	18	-5	-3.0	5	·
Cc1ccc(-c2nnn(CC(=O)NCCc3ccc4c(c3)OCO4)n2)cc1
 : 1.0	3.0	-6	-32	-3.2	0	-3%
Cc1ccc(-c2csc(NNC(=O)c3ccccc3)n2)cc1
 : 4.0	-5.5	·	-3	-1.9	4	?
Cc1ccc(S(N)(=O)=O)cc1NC(=O)c1ccc2c3c(cccc13)CC2
 : 2.1	4.5	·	12	-2.6	-5	5%
COc1ccc(C[C@H]2CN3C(=NC[C@@H]3C(C)C)N2CCNC(=O)c2ccc(C)c(Br)c2)cc1
 : -5.2	-5.8	-6	30	-7.3	15	·
CSc1ccc(C(=O)C2CCCN(C(=O)Cc3nonc3C)C2)cc1 (centres undefined)
 : 3.1	-2.4	-2	8	-1.9	2	-4%
Cc1ccc(OCC(=O)OC2CCCN(C)C2)cc1 (centres undefined)
 : -1.8	1.5	2	19	2.1	11	·
CCCOc1cccc(C(=O)NCCNC(=O)c2cnccn2)c1
 : -0.7	6.2	-1	8	3.3	-9	·
Cc1ccsc1/C=N/n1c(-c2ccccc2)n[nH]c1=S
 : ?	-0.4	22	3	1.2	3	3%
CCc1ccc2c(c1)cc(CN(C(=S)Nc1ccccc1Cl)C1CC1)c1nnnn12
 : 3.0	-2.7	5	1	0.7	6	-5%
COc1ccc(OC)c(C2C3=C(N=c4s/c(=C\c5cccc(O)c5)c(=O)n42)c2ccccc2CC3)c1 (centres undefined)
 : -9.0	-6.9	-2	-4	12	14	-1%
CCCCC1=CC2=CC(=O)C(C)(OC(=O)CCC(=O)OC)C(=O)C2=CO1 (centres undefined)
 : -13	6.7	-7	7	·	·	·
COc1ccc(Cc2cc(NCc3ccccc3)c3ncn(C(C)C)c3c2)cc1
 : ·	-4.2	-8	·	4.0	0	·
O=C(Nc1ccc(S(=O)(=O)NC2=NCCCCC2)cc1)c1ccc(=O)[nH]c1
 : 0.9	0.7	-10	8	-5.5	5	?
COC(=O)c1cccc(N2CCCC2=O)c1
 : -4.9	0.2	·	-1	-1.4	-6	·
COc1ccc(CNc2nc3nc(C)cc(C)n3n2)cc1OC
 : 2.4	8.0	-19	10	3.4	-10	1%
CC(=O)Nc1cc(S(=O)(=O)C(F)(F)F)ccc1Cl
 : -2.6	-0.7	-3	4	-3.1	-6	17%
CC1CN(C(=O)COC(=O)c2cccc(NS(=O)(=O)c3ccccc3)c2)CC(C)O1 (centres undefined)
 : ?	-5.8	2	5	-2.4	0	-3%
C=C(C)Cn1c(N2CCC(Cc3ccccc3)CC2)nc2c1c(=O)[nH]c(=O)n2C
 : 0.8	1.6	-5	10	1.9	6	10%
C1=C(c2ccco2)N2CCN=C2S1
 : 0.2	3.1	80*	-25	-3.0	-4	·
O=C(Cc1ccc(NC(=O)C2CCCN(C(=O)C3CC3)C2)cc1)Nc1cccc(C(=O)N2CCCC2)c1 (centres undefined)
 : ·	·	·	·	0.2	-4	-5%
COc1ccc(OCC(=O)O/N=C(\N)Cc2ccc(Cl)cc2Cl)cc1
 : 6.0	6.2	-3	-11	1.4	0	-4%
Cc1ccn2cc(C(=O)Nc3ccccc3N3CCOCC3)nc2c1
 : -1.9	-2.3	-1	0	-0.6	-6	?
CSc1nnc(-c2nnc(SC)n2-c2ccccc2)n1-c1ccccc1
 : 1.7	5.6	·	-2	-5.5	-11	-4%&3%
CCOc1ccc(S(=O)(=O)N(CC(=O)NCc2ccncc2)c2ccc(C)cc2)cc1
 : -2.5	2.2	-2	15	-2.2	-10	·
N/C(=N\OC(=O)COc1ccc2ccccc2c1)c1cccnc1
 : 0.1	0.6	4	?	4.6	-2	·

(more compounds)
Values run as follows: RanGTP-Imp inh	LANA-H2A inh	ALR inh	Calb FLC	HNF4A DNA FP	Beta2AR agonist	Vif TR-FRET
COc1ccc2c(c1)CCc1cnoc1-2
 : ·	·	·	·	-0.6	-3	6%
CCn1nc(C(=O)Nc2ccccc2N2CCCC2)c2ccccc2c1=O
 : -0.2	-0.7	37	1	1.8	10	-5%
Cc1ccccc1Nc1c([N+](=O)[O-])ccc2nonc12
 : 6.4	2.7	-23	3	-2.9	5	3%
CC(C)(C)C(=O)Nc1cccc(-c2ncon2)c1
 : -0.3	1.7	-15	0	-0.7	-1	·
Cc1ccc2c(c1)C(c1ccccc1)N(C(=O)c1c(F)cccc1Cl)CC(=O)N2 (centres undefined)
 : -6.1	-3.8	-16	-24	2.3	11	-3%
COc1cc(C)nn1-c1ccc(Cl)cc1
 : 2.7	-3.5	1	5	-0.5	1	-6%
COC(=O)c1sccc1NC(=O)c1ccc(OC)c(OC)c1
 : -1.0	-2.3	-1	19	0.8	4	3%
Nc1nc2ccccc2cc1-c1cccs1
 : 5.3	3.6	-4	-30	-1.1	0	-4%
Cc1ccc(CN2CCN(/N=C/c3ccc(Cl)c([N+](=O)[O-])c3)CC2)cc1
 : -0.4	-1.5	-7	1	1.8	-1	·
O=C(COc1ccc2c(C(F)(F)F)cc(=O)oc2c1)Nc1ccc(N2CCOCC2)cc1
 : ?	4.4	30	3	-1.5	-8	1%
CC(=O)Nc1ccc(NC(=O)C(C)OC(=O)CCC2CCCCC2)cc1 (centres undefined)
 : -1.2	0.4	1	3	0.8	4	·
N#CC1(NC(=O)COC(=O)c2cc([N+](=O)[O-])ccc2N2CCOCC2)CCCCC1
 : -6.0	-1.3	1	9	6.9	-9	-6%
N=c1c(S(=O)(=O)c2ccccc2)cc2c(=O)n3ccccc3nc2n1C1CCCC1
 : 144*	6.1	-15	21	12	-1	·
O=C(CN(Cc1cccs1)C(=O)CN1C(=O)COc2ccccc21)NCc1ccco1
 : 3.9	-1.2	1	-1	1.2	6	0%
O=C(COC(=O)C1CCN(c2ccc(C(F)(F)F)cn2)CC1)NCc1ccc(Cl)cc1Cl
 : 5.7	-1.0	-3	·	1.6	4	-3%
CCc1[nH]c(C(=O)O)c(C)c1C(=O)OC
 : 1.6	-2.2	-27	2	0.5	-8	·

Assay outcomes (PubChem)
